Ran FRET: inhibitors of Ran–importin-beta complex formation, primary screen, biochemical, CFP-Ran/YFP-importin-beta FRET, RCC1, cell-free (AID 434961). Regulator of chromosome condensation (Homo sapiens) + GTP-binding nuclear protein Ran …. CFP-Ran/YFP-importin-beta FRET, cell-free; stronger effect = higher value. inhibition, %. 7,700 compounds, 0.2% hits;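 active means more than half of the replicate wells above 15% inhibition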;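 further: 0% = DMSO wells and 100% inhibition = RanGDP control wells on each plate; stock of unstated strength diluted about 400-fold; mean of two wells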
Starred values were filed as active, the others as inactive. An excerpt, so the mix of outcomes need not match the whole.

SMILES | Ran FRET
Cc1ccc(OC(=O)N(C)C[C@H]2OCc3cnnn3CCCC(=O)N([C@@H](C)CO)C[C@H]2C)cc1 | -2.6
Cc1ccc(OC(=O)N(C)C[C@H]2OCc3cnnn3CCCC(=O)N([C@H](C)CO)C[C@H]2C)cc1 | 0.7
Cc1ccc(OC(=O)N(C)C[C@@H]2OCc3cnnn3CCCC(=O)N([C@@H](C)CO)C[C@H]2C)cc1 | -0.4

Retrieved by structure from the entries so far (two):
SMILES | Ran FRET
Cc1ccc(OC(=O)N(C)C[C@H]2OCc3cnnn3CCCC(=O)N([C@@H](C)CO)C[C@H]2C)cc1 | -2.6
Cc1ccc(OC(=O)N(C)C[C@H]2OCc3cnnn3CCCC(=O)N([C@H](C)CO)C[C@H]2C)cc1 | 0.7
